Bioassay records: PubChem BioAssay, ICCB-Longwood Screening Facility, Harvard Medical School
HCMV UL50-53 inh = disrupts HCMV UL50-UL53 complex binding; HTRF UL50-UL53 interaction, normalized percent inhibition; inhibition, % (no concentration beside the values); actives 0.15% (n = 190,000); AID 1918969;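 active = both replicates at 50% or more, plus weaker picks with an unusually low signal ratio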;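 also: stock transfer was 100 nL into about 20 µL; 0% = negative control wells and 100% = wells with untagged competitor protein; inactives centre near -12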
GIV-Gai inh = blocks GIV peptide binding to rat Galpha-i3 | Galpha-i3/FITC-GIV peptide fluorescence polarization, 90 min; active compounds read low; scaled: aluminum fluoride 0%, vehicle 100% | actives 0.42% (n = 210,000) | P08753 | percent of control (FP), % (test concentration not listed);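 active = replicate mean at 85% of control or lower, very high polarization wells dropped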;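 also: lower values mean more displacement of the GIV peptide from Galpha-i3; wells of about 15 µL received 100 nL stock; the first replicate is given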
Target sequence (P08753 whole entry, looked up): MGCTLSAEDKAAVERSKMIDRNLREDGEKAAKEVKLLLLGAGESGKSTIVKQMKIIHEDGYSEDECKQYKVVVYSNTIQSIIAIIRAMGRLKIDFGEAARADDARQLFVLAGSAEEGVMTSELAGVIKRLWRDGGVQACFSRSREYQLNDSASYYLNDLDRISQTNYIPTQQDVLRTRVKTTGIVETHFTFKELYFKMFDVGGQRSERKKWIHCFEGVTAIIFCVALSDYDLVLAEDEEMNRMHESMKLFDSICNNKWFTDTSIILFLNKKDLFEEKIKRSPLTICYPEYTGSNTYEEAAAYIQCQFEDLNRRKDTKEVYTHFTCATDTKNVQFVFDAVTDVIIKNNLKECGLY
Sa growth 42C = S. aureus growth inhibition; actives 0.53% (n = 170,000); S. aureus RN4220 growth, OD600, 20 h, 42 °C; active compounds read low; relative growth, % (concentration not given with the values);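 active = growth at 42 °C up to 50% and 20 or more points under that at 30 °C, or under 10% at both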;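 also: 300 nL library stock went into each well; scaled to the means of positive and negative controls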
Sa growth 42C second temp = second read-out of Sa growth 42C, no call of its own (marks repeat the call); relative growth, %; measured here: growth at 30 °C;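 optical density after 20 h as mean of two plates; 100% = untreated growth and lower means inhibition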
* = called active by the depositor; . = not tested or not shown; & = joins results of further samples.

Compound | Sa growth 42C second temp | HCMV UL50-53 inh | GIV-Gai inh | Sa growth 42C
O=C1CC(C(=O)N2CCc3ccccc32)CN1CCc1c[nH]c2ccc(F)cc12 (configuration not stated) | . | -1 | 100 | .
CC(C)[C@H](N)c1nnc(SCc2cccc(F)c2)o1 | 73 | -22 | 104 | 89
Cc1ccc2nc(N3CCOCC3)c(-c3noc(C)n3)cc2c1 | . | -28 | 105 | .
O=C(CSc1nccc(=O)[nH]1)N1CCOCC1 | 101 | 4 | 112 | 103
CSc1ccc(/C=C2\CC/C(=C\C(C)C)C2=O)cc1 | 88 | . | 111 | 99
S=c1nc[nH]c2nc[nH]c12 | 50 | -15&-15&-19 | . | 71
Cc1ccc(OCC(=O)Nc2nnc(SCc3cc(=O)c4ccccc4[nH]3)s2)cc1 | 89 | . | 105 | 85
CCOC(=O)c1cnn(-c2ncc(C(=O)OC)c(C(F)(F)F)n2)c1C(F)(F)F | 86 | -36 | 104 | 88
CC(C)P(=O)(c1cccc(C(=O)O)c1)C(C)C | 95 | -10 | 104 | 110
COc1ccc(C2=NOC(C(=O)N(C)c3ccccc3)C2)cc1 (configuration not stated) | 86 | -2 | 99 | 91
CCN1C(=O)C2CCCCN2c2ccc(C(=O)Nc3ccc(C(C)C)cc3)cc21 (configuration not stated) | . | -29 | 107 | .
Cc1ccc(-c2nc(CN3CCN(C(=O)CN4C(=O)c5ccccc5C4=O)CC3)c(C)o2)cc1 | . | -24 | 107 | .
O=[N+]([O-])c1ccc(C(c2sc3nc(-c4ccco4)nn3c2O)N2CCN(c3cccc(Cl)c3)CC2)cc1 (configuration not stated) | 71 | . | 100 | 110
CN1CCN(c2nn3c(NC(C)(C)C)c(-c4ccccc4)nc3s2)CC1 | . | 10 | 101 | .
CCC1Oc2cc(S(=O)(=O)N3CCCC(C(=O)N4CCOCC4)C3)c(C)cc2NC1=O (configuration not stated) | . | -7 | 109 | .
CNC(=O)c1cc(-c2ccc(F)cc2)[nH]c1C | 65 | . | 104 | 86
CCOc1ccc(NC(=O)N2CCC(C(N)=O)(N3CCCCC3)CC2)cc1 | 90 | -14 | 101 | 94
CCCc1cc(C(=O)Nc2ccc(CC)cc2)no1 | 90 | -7 | 97 | 94
CC(C1CC1)n1nccc1NC(=O)c1ccc(Br)cc1 (configuration not stated) | . | -15 | 107 | .
CCCCc1ccc(NS(=O)(=O)CC(C)C)cc1 | 71 | -6 | 102 | 84
Cc1ccc(S(=O)(=O)N2CCN(Cn3nc(C)sc3=S)CC2)c(C)c1 | 100 | -6 | . | 82
Clc1ccccc1N=C/C=C1\NN=NC1c1ccc(Br)cc1 (configuration not stated) | 90 | -22 | 101 | 109
CCC1CCCCN1C(=O)/C=C/c1ccccc1Cl (configuration not stated) | 91 | -22 | 105 | 117
O=C(O)c1ccccc1C(=O)N1CCCN(c2ncccc2C(F)(F)F)CC1 | 100 | . | 107 | 108
CC(=O)Nc1c(NC(C)(C)C)c2ccccc2oc1=O | 86 | -19 | 106 | 85
O=C(O)CNC(=O)Nc1ccccc1 | 87 | -39 | . | 77
COC(=O)c1ccccc1NC(=O)c1cnc2c(-c3cccc(C)c3)c(C)nn2c1C | 100 | . | 111 | 102
Cc1cc(C(=O)CSc2nnc(C(F)(F)F)n2C)c(C)n1Cc1ccco1 | 96 | -1 | . | 93
c1ccc(CSc2nnc3n2CCN3c2ccccc2)cc1 | . | -33 | 100 | .
Cc1cc2c(cc1S(=O)(=O)N1CCCC1C(=O)N1CCOCC1)OC(C)C(=O)N2 (configuration not stated) | . | -3 | 100 | .
CCS(=O)(=O)N1CCC(C(=O)OCC(=O)c2ccc(Br)cc2)CC1 | 89 | -8 | 103 | 112
CN(C)c1cccc(C(=O)Nc2cc(C(F)(F)F)ccc2-n2ccnc2)c1 | 84 | -25 | . | 104
CCc1ccc(CN(Cc2ccco2)C(=O)c2cc(-c3ccc(Cl)cc3)on2)cc1 | 94 | 4 | 100 | 107
O=S(=O)(Cc1ccccc1Cl)NC1CCCCC1 | 106 | -34 | 110 | 116
CC(=O)Nc1ccc(NC(=O)CC2(CC(=O)O)CCCC2)cc1 | 85 | -15 | 98 | 91
O=C(c1ccccc1)C1CN(CC2CCCO2)CCC1(O)c1ccccc1 (configuration not stated) | 76 | -20 | . | 84
CNCC1C(C)C=C(C)CC1C (configuration not stated) | 112 | 5 | 100 | 80
CCc1ccc(/C=C2\C(=N)N3N=C(S(C)(=O)=O)SC3=NC2=O)cc1 | 81 | . | 102 | 96
CC(=O)OCN1CCN(COC(C)=O)C1=O | 87 | -20 | . | 97
Cc1cc(C)n2nc(CC(=O)NCc3ccccc3Cl)nc2n1 | 81 | . | 98 | 95
Brc1cccc(-c2cn3ccccc3n2)c1 | 71 | -19 | 102 | 94
CC(C)C(NC(=O)OCc1ccccc1)C(=O)N1CCOCCOCCOCC1 (configuration not stated) | 106 | -1 | 106 | 123
CCCSc1n[nH]c(-c2ccc(C)cc2)n1 | 85 | -40 | . | 75
CCOC(=O)c1cn(CC(=O)Nc2cccc(F)c2)nn1 | 93 | 1 | 99 | 109
O=C(NCCc1ccccc1)c1ccc(CS(=O)(=O)Cc2ccc(F)cc2)o1 | 85 | 5 | 105 | 90

2 compounds from above with just Sa growth 42C second temp, HCMV UL50-53 inh and GIV-Gai inh.
| structure | Sa growth 42C second temp | HCMV UL50-53 inh | GIV-Gai inh |
| --- | --- | --- | --- |
| O=C(c1ccccc1)C1CN(CC2CCCO2)CCC1(O)c1ccccc1 (configuration not stated) | 76 | -20 | . |
| O=C(NCCc1ccccc1)c1ccc(CS(=O)(=O)Cc2ccc(F)cc2)o1 | 85 | 5 | 105 |

Later entries.
Compound | Sa growth 42C second temp | HCMV UL50-53 inh | GIV-Gai inh | Sa growth 42C
COc1ccc2nc(C)cc(OCC(=O)Nc3cc(C)cc(C)c3)c2c1 | 93 | -21 | . | 102
CN1CCN(C(=O)c2ccccc2NC(=O)c2ccc(F)cc2)CC1 | 94 | -10 | . | 102
COc1ccc(CN2CCN(Cc3cccc4ccccc34)CC2)cc1 | 99 | 4 | . | 101
CC1=C(C(=O)N(C)CCC#N)C2(CCCCC2)OC1=O | 96 | 4 | 103 | 75
Nc1ncnc2nc(SCCN3CCCCC3)[nH]c12 | . | -12 | 103 | .
COc1ccc(C2=C(N3CCN(c4cc(Cl)ccc4C)CC3)c3ccccc3C2=O)cc1 | 93 | -5 | 105 | 115
Cc1ccc(I)c(C(N)=O)c1 | 95 | -5 | 103 | 105
COC(=O)CSc1nc2ccccc2n1CCc1ccccc1 | 87 | -17 | . | 103
O=C1OC2CC1(O)CC(O)C2O (configuration not stated) | 83 | -34 | . | 87
CCC(Sc1nc(N)cc(=O)[nH]1)C(=O)Nc1ccccc1C#N (configuration not stated) | 83 | -1 | 102 | 112
O=C(c1ccncc1)N1N=C(c2ccc(F)cc2)CC1(O)C(F)(F)F (configuration not stated) | . | -20 | 101 | .
CCOCCCNC(=O)CCNC(=O)N1CCSc2nc(C)cc(C)c21 | . | -9 | 102 | .
COc1ccc(OC)c(S(=O)(=O)N2CCC3(CC2)Nc2ccccc2-n2cccc23)c1 | . | -8 | 98 | .
CCn1c(SCc2ccc(C)cc2)nnc1-c1ccc(S(=O)(=O)N2CCOCC2)cc1 | 89 | -17 | 97 | 104
Cc1cccc(NC(=O)c2ccc3nc(CCc4ccccc4)oc3c2)c1C | 95 | . | 99 | 108
COC(=O)CCC(=O)N1CCc2ccccc21 | 79 | -5&-19 | 108 | 83
OCCCn1c(-c2ccc(F)cc2)csc1=Nc1ccc(F)cc1 | 51 | 1 | 98 | 79
COc1cccc(NC(=O)c2ccc3c(c2)N(C)CCS3)c1 | 78 | . | 96 | 89
COc1ccccc1OCC(=O)Nc1onc2c1CC(C)CC2 (configuration not stated) | . | -22 | 99 | .
COc1cc(-c2cc(C(F)(F)F)n3ncc(C(=O)Nc4cc(C)ccc4O)c3n2)cc(OC)c1OC | . | 3 | 97 | .
O=C(CSc1nnnn1C1CC2C=CC1C2)Nc1cccc(C(=O)O)c1 (configuration not stated) | 98 | -8 | 98 | 132
CN(C(=O)C(=O)Nc1ccc2nc3n(c(=O)c2c1)CCCCC3)c1cccc(C(F)(F)F)c1 | 79 | -14 | 100 | 112
Cc1cc(-c2nn3c(C(C)C)nnc3s2)c2ccccc2n1 | . | -58 | 99 | .
Cc1cccc(N2CCN(C(=O)CCCn3c(=O)[nH]c4ccsc4c3=O)CC2)c1C | 96 | -20 | 103 | 98
Cc1ccc(N(C)C(=O)CCS(=O)(=O)c2cc3c(cc2Cl)NC(=O)CO3)cc1 | 98 | . | 100 | 113
O=C(Cn1cnc2ccccc21)OCC(=O)N1CCCC1 | 105 | 14 | . | 114
CCCCC(=O)Nc1cccc(NC(=O)c2cc3ccccc3o2)c1 | 91 | -21 | 106 | 106
O=C(CN1C(=O)c2ccccc2C1=O)N(Cc1ccccc1)Cc1ccccc1 | 84 | . | 98 | 87
CCn1cnc(S(=O)(=O)N2CCC(C(=O)NC3CCCC3)CC2)c1 | . | -33 | 105 | .
O=c1oc(-c2ccccc2)nc2ccccc12 | 101 | 5 | 102 | 113
Cc1ccc(-c2nc(CS(=O)(=O)CC(=O)NCCc3ccccc3)c(C)o2)cc1 | 91 | -28 | 102 | 84
CCc1ccc2cc(CNC3CCCCC3)c(=O)[nH]c2c1 | 95 | -1 | 110 | 83
NC(=O)C1CCCN(Cc2ccc3ccccc3c2)C1 (configuration not stated) | 112 | -13 | 105 | 97
COc1cccc(/C=N/NC(=O)C2CCCN(C(=S)NNC3CC4C=CC3C4)CC2)c1O (configuration not stated) | 96 | 4 | 109 | 95
Cc1cccc(OCCCn2ccnc2)c1 | 75 | -8 | 109 | 73
CC(CNC(=O)CCC1=NS(=O)(=O)c2ccccc2N1)c1ccccc1 (configuration not stated) | . | -11 | 108 | .
CCC(CO)NCc1ccc(-c2cccc(Cl)c2C)o1 (configuration not stated) | . | -4 | 104 | .
COc1ccc(C2C(C(=O)O)c3ccccc3C(=O)N2C)cc1 (configuration not stated) | 86 | -27 | 98 | 93
CSc1nc2ccccc2n1CC(=O)NC1CCCc2ccccc21 (configuration not stated) | 85 | 18 | . | 111
COC(=O)C1=C(C)NC(=O)NC1c1ccc(C(C)C)cc1 (configuration not stated) | 81 | -22 | 103 | 95
O=c1cc(CNC2CCCCC2)c2ccccc2[nH]1 | 91 | -6 | 97 | 92
CCN1C(=O)/C(=C/c2ccccc2)SC1=Nc1cccc(C(=O)O)c1 | 50 | -79 | 99 | 82
COc1ccc(CCNC(=O)CCn2c(=O)c3ccccc3n(CC(=O)Nc3ccc(C)cc3C)c2=O)cc1OC | 97 | 4 | 107 | 100
O=C(CSC(=S)N1CCOCC1)Nc1nc(-c2c[nH]c3ccccc23)cs1 | 90 | . | 105 | 103
O=C(c1ccc2c(Cl)c3c(nc2c1)CCC3)N1CCC2(CC1)OCCO2 | 82 | -27 | 100 | 105
COc1ccccc1CNC(=O)c1sc2ncnc(N3CCN(c4ccccc4F)CC3)c2c1C | 93 | . | 104 | 86
CCOC(=O)c1c(CN2CCN(c3ccccc3C)CC2)n(C2CCCCC2)c2cc(Br)c(O)cc12 | . | -6 | 101 | .
C/C(CCc1oc2c(Br)cc(C)cc2c1-c1ccc(C)o1)=N\NC(N)=S | 57 | -14 | 103 | 84
O=c1[nH]c2ccccc2n1Cc1ccccc1 | 96 | -2 | 100 | 85
O=C(CS(=O)(=O)c1ccccc1)Nc1nccs1 | 88 | -6 | 97 | 95
Cc1cc(C)c2cccc(NC(=S)NC(=O)/C=C/c3ccccc3)c2n1 | 90 | . | 99 | 103
COc1ccc(C)cc1NC(=S)NCc1cnn(C)c1 | 90 | -1 | 106 | 81
COc1ccc(-c2onc(C)c2C)cc1S(=O)(=O)N1CCN(c2cc(C)ccc2C)CC1 | 92 | . | 104 | 88
CC(C(=O)N1CCCc2ccccc21)n1nc(-c2cccs2)oc1=O (configuration not stated) | 87 | -28 | . | 99

Arranged by the number under Sa growth 42C second temp (high to low): 3 of the compounds above
molecule	Sa growth 42C second temp	GIV-Gai inh
CC(C)C(NC(=O)OCc1ccccc1)C(=O)N1CCOCCOCCOCC1 (configuration not stated)	106	106
CC1=C(C(=O)N(C)CCC#N)C2(CCCCC2)OC1=O	96	103
O=C(c1ccc2c(Cl)c3c(nc2c1)CCC3)N1CCC2(CC1)OCCO2	82	100

4 compounds picked at random from the list so far, as already listed:
Compound | Sa growth 42C second temp | HCMV UL50-53 inh | GIV-Gai inh | Sa growth 42C
CC(C(=O)N1CCCc2ccccc21)n1nc(-c2cccs2)oc1=O (configuration not stated) | 87 | -28 | . | 99
COc1ccc(-c2onc(C)c2C)cc1S(=O)(=O)N1CCN(c2cc(C)ccc2C)CC1 | 92 | . | 104 | 88
O=c1[nH]c2ccccc2n1Cc1ccccc1 | 96 | -2 | 100 | 85
COc1ccc(C)cc1NC(=S)NCc1cnn(C)c1 | 90 | -1 | 106 | 81

Not a hit list, and some 0.8% of all compounds hit somewhere here.
